PrP 5UTR inh: inhibition of PrP 5' UTR reporter expression. cell-based PrP 5' UTR mRNA reporter, plate reader. inhibition, % (concentration not given with the values). actives 0.35% (n = 340,000);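 active = every replicate at 50% or more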;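 note: 0 = median of the neutral control wells; tested in H4 reporter cells; numbers are from one replicate; inactives centre near -14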
Sa ugtP lethal: kills S. aureus RN4220 lacking UgtP | S. aureus RN4220 ugtP deletion, OD600 growth, 16 h; some inactives read as strong as hits | growth inhibition, % (no concentration beside the values) | actives 0.54% (n = 330,000) | AID 1259309;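 active = z-score under -3 and OD600 up to 0.15 on both plates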;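 note: plate controls were untreated wells for no effect and antibiotic for full effect; wells of about 80 µL received 100 nL stock; the first replicate is given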
Autofluor counter: flagged as autofluorescent in microsphere protease counterscreen; compound autofluorescence counterscreen, microsphere flow cytometry; active compounds read high; fluorescence intensity (test concentration not listed); actives 3.1% (n = 360,000);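 active = at least 3 SD above the mean of all compounds, about 16000 in these data; inconclusive = too few beads counted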;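 note: 100 nL of 1 mM stock went into each well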
BJeLR viability: BJeLR cell viability loss; inhibition, % (concentration not given with the values); BJeLR (HRASV12) viability, CellTiter-Glo ATP luminescence, 48 h; reference of the scale not given here; actives 0.17% (n = 300,000);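 active = replicate mean above 50%; inconclusive = above 50% but judged a plate artefact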;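 note: 50 nL library stock added to about 25 µL; numbers are from one replicate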
Mtb hypoxia rep: reduces hypoxia-regulated biosensor signal in M. tuberculosis; M. tuberculosis hypoxia-regulated fluorescent reporter, fluorescence; fluorescence inhibition, % (no concentration beside the values); actives 0.1% (n = 300,000); AID 1159583;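 active = 35 to 45% if threefold the growth effect, above 45% if 1.5-fold the growth effect; inactive = the rest, general growth blockers included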;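 note: wells of about 50 µL received 100 nL stock; 0% = vehicle wells and 100% = reference inhibitor wells; whole bacteria with a GFP reporter of the hypoxia response; strong numbers were not always called active; many hits fall short of the cut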
Sa RN4220 lethal: kills Staphylococcus aureus RN4220; inhibition, % (concentration not given with the values); AID 1259311; actives 0.33% (n = 330,000); S. aureus RN4220 growth, OD600, 16 h;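 active = z-score of -3 or lower and OD600 up to 0.18 on both plates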;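 note: plate controls were untreated cells for no effect and reference antibiotic for full effect; stock transfer was 100 nL into about 80 µL; one replicate is shown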
Mtb hypoxia rep growth: recorded beside Mtb hypoxia rep, whose call it bears; growth inhibition, %; measured here: M. tuberculosis growth (absorbance);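 0% = vehicle and 100% = reference antibiotic; read after six days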
* = called active by the depositor; ? = inconclusive; · = not tested or not shown.

Second line of a record: Autofluor counter | Sa RN4220 lethal | PrP 5UTR inh | Sa ugtP lethal | Mtb hypoxia rep growth | Mtb hypoxia rep | BJeLR viability
> CC(C)[N+](C)(C)CC(O)CN(c1ccccc1)c1ccccc1 (centres undefined)
  4379 | -3.4 | -3.0 | 1.9 | 2.0 | 13.9 | 3.5
> CCOc1ccccc1CNC(=O)c1c([N+](=O)[O-])c(C)nn1C
  9292 | 8.7 | 0.6 | -1.0 | 2.9 | 4.8 | 13.0
> N/C(=N\OC(=O)/C=C/c1ccccc1)c1ccc(Cl)cc1
  · | 1.1 | -16.5 | 6.9 | -4.5 | -0.1 | 1.7
> O=C(NN=Cc1ccc([N+](=O)[O-])o1)C(=O)Nc1ccc(C(=O)O)cc1
  · | 18.4 | · | 0.4 | 6.6 | 2.7 | ·
> COc1ccccc1C=NNC(=O)c1cccc2ccccc12
  · | 0.2 | · | 4.8 | 2.7 | 4.3 | ·
> Cn1c(=O)c2c(nc(CN3CCCCC3)n2CCCc2ccccc2)n(C)c1=O
  4138 | 0.5 | -2.3 | -2.8 | 1.9 | -8.8 | -2.4
> Cc1c(NC(=S)NC(=O)c2cccc(Br)c2)c(=O)n(-c2ccccc2)n1C
  3378 | 3.8 | -17.2 | 1.0 | -5.0 | -7.2 | -10.7
> Cc1ccc2nc(N(CCCN(C)C)C(=O)c3ccc(S(=O)(=O)N4CCc5ccccc5C4)cc3)sc2c1
  6462 | · | -15.8 | · | · | · | 16.2
> COc1ccc(N2CCN(C(=S)Nc3ccc(C)cc3)CC2)cc1
  4347 | 2.4 | -27.0 | 9.9 | 8.5 | 3.8 | -3.0
> Cc1ccc(NC(=O)c2ccc3c(c2)C(=O)N(c2ccccc2C)C3=O)nc1
  6207 | 1.3 | -6.0 | 5.6 | -4.9 | 8.8 | ·
> CC(C)Oc1cccc(C(=O)Nc2ccc(N3CCN(S(C)(=O)=O)CC3)cc2)c1
  3846 | 3.9 | -21.3 | 0.1 | 1.3 | 12.4 | 4.7
> COc1cccc(N2C(=O)CN(Cc3ccc(OC)c(OC)c3)C2=S)c1
  3395 | 4.9 | -3.4 | 4.9 | 3.2 | 4.2 | 14.8
> CC[N+](CC)(CC)CCOc1ccc(C=Cc2ccccc2)cc1
  · | -7.5 | · | -6.9 | 10.5 | 7.9 | ·
> COc1ccc(C(=O)NNC(=O)COc2ccc(Cl)cc2C)cc1S(=O)(=O)N1CCOCC1
  ? | 0.3 | -35.7 | -3.2 | 0.5 | 7.5 | 1.9
> COC(=O)C1=C(c2ccc(F)cc2OCc2ccccc2)CC2CCC1N2C(=O)NCc1ccccc1Br (centres undefined)
  · | -6.9 | · | -14.3 | 8.1 | 7.8 | ·
> O=C(OC(C(=O)NCc1cccs1)c1ccc(F)cc1)c1ccco1 (centres undefined)
  9776 | 4.7 | 0.1 | 0.7 | 0.1 | -2.1 | 4.5
> CCCc1ccc2oc(C(=O)N3CCC(COC)C3)c(C)c2c1 (centres undefined)
  3865 | 3.8 | -36.3 | 0.5 | 4.7 | 2.6 | 0.8
> Cc1nnc(SCC(=O)Nc2ccc3c(c2)OCCO3)s1
  21759* | 1.6 | -21.7 | 5.5 | -3.1 | 2.0 | -2.3
> O=C(Nc1ccccc1)Nc1ccc(Oc2cccnc2)nc1
  · | -4.4 | -31.9 | -15.2 | -0.5 | 19.0 | 1.2
> CCOC(=O)/C(=C/c1cn(C)c2ccccc12)NC(=O)c1ccccc1
  5388 | 3.2 | -31.3 | 8.2 | 5.0 | 12.8 | 13.4
> Cc1ccc2cc(CCNC(=O)c3ccco3)c(=O)[nH]c2c1
  11014 | 9.1 | -49.8 | -1.7 | 20.7 | 10.6 | -0.2
> Cc1ccc(OCc2cc(C(=O)N(C)Cc3nccn3C)no2)cc1C
  6148 | 1.7 | 2.5 | 4.7 | 6.2 | 7.4 | 3.9
> O=S(=O)(Nc1cccc(-c2cn3ccsc3n2)c1)c1ccc(F)cc1
  4580 | 1.7 | -23.6 | 32.7 | 4.4 | 3.6 | -2.3
> CC/C(=C\c1oc2cc3ccccc3cc2[n+]1CC)Nc1ccccc1
  12240 | 1.9 | -22.6 | -10.9 | 30.5 | 23.9 | 14.7
> N#CCCN1CCN(CCC#N)C1=S
  3410 | 5.6 | -9.7 | -1.9 | 5.7 | 3.5 | ·
> Cc1cc(N2CCOCC2)nc2ccc(NC(=O)C3CCC(C)CC3)cc12 (centres undefined)
  3780 | 7.8 | 7.0 | -7.2 | 9.7 | 1.3 | -5.4
> COc1cccc(CN2CC(C(=O)N3CCN(C(C)C)CC3)CCC2=O)c1 (centres undefined)
  4050 | 3.8 | 0.9 | 18.0 | -12.1 | 9.5 | 2.2
> COc1cc(C(C)=O)ccc1COc1ccc(C(=O)OC(C)C(=O)NC(N)=O)cc1OC (centres undefined)
  2593 | 5.5 | -1.4 | -4.8 | 10.1 | 13.1 | -1.2
> Cc1ccc2c(n1)sc1c(-c3ccc(Br)cc3)c(C#N)c(N)nc12
  ? | 5.5 | 4.7 | 10.7 | · | · | 11.0
> O=C(NCC12CC3CC(CC(C3)C1)C2)c1nc2ncccn2n1
  19103* | 1.6 | -19.0 | 2.5 | 3.2 | 6.7 | 1.6
> O=C(CSc1nc2ccccc2s1)NC1CCCC1
  4316 | 3.2 | -18.5 | 2.4 | 6.4 | -6.8 | 13.1
> CCCCOc1ccc(C(C)NC(=O)CCS(=O)(=O)Cc2ccccc2F)cc1 (centres undefined)
  2630 | 9.2 | -2.3 | 30.8 | 11.7 | 16.4 | -10.2
> CCc1c(C)sc(NC(=S)NC(C)C2CCCO2)c1C(=O)OC (centres undefined)
  4512 | -0.1 | -15.4 | 0.6 | 0.7 | 0.6 | ·
> COc1ccc(C=NN2CCOCC2)cc1COc1ccc(Cl)cc1
  · | 6.7 | · | 16.2 | 1.0 | 8.4 | ·
> Cc1ccc(NC(=O)Nc2cccnc2)cc1NC(=O)Nc1cccnc1
  3314 | -4.9 | -21.6 | -16.3 | 2.1 | 9.9 | -0.1
> COCCNC(=O)Cn1c(=O)n(CCCCCC(=O)Nc2ccccc2)c(=O)c2sccc21
  1959 | 4.8 | -16.8 | 5.7 | -4.6 | -2.2 | -13.4
> COc1ccc(N=Cc2c(O)n(-c3cccc(C)n3)c(=O)c3ccccc23)cc1
  1876 | 0.7 | -61.9 | -7.6 | 10.9 | -1.8 | -3.2
> COc1ccccc1C/C(N)=N/OC(=O)c1ccc2c(c1)OCO2
  3135 | 6.2 | -31.2 | -0.3 | -3.0 | 4.2 | 4.0
> COCCn1nnnc1C(c1cccs1)N1CCN(c2cc(C)ccc2C)CC1 (centres undefined)
  7225 | 7.8 | -9.2 | 23.4 | -1.1 | 1.6 | -4.1
> Cc1ccc(C)c(OCCCC(=O)Nc2nccs2)c1
  2982 | -0.9 | 3.7 | -2.3 | · | · | -7.0
> O=C(NCc1ccccc1)C1CCCN(S(=O)(=O)c2cccs2)C1 (centres undefined)
  7936 | 4.1 | -10.5 | 13.1 | 9.3 | 10.0 | -5.8
> O=S(=O)(c1ccc(Oc2ccc(-c3nnco3)cc2)nc1)N1CCC(Cc2ccccc2)CC1
  9822 | 2.2 | -13.0 | -4.8 | 2.7 | 3.5 | -7.4
> CC(C)CN(CC(C)C)S(=O)(=O)N1CCC(C(=O)NC2CCCCCCC2)CC1
  11100 | 3.2 | -20.9 | -3.3 | 2.7 | 2.3 | -0.9
> CCOC(=O)N1CCN(C(=O)CS(=O)Cc2nc(-c3ccc(C)cc3)oc2C)CC1 (centres undefined)
  5825 | 5.6 | -14.1 | 2.8 | 4.9 | 1.5 | 7.1
> O=C(COC(=O)C1(c2ccccc2)CC1)NNC(=O)c1ccccc1
  6016 | 0.1 | -17.2 | 3.5 | -0.5 | 9.5 | -9.7
> COc1ccccc1N1CCN(CC(O)COCCOc2ccc(Br)cc2)CC1 (centres undefined)
  2454 | 2.0 | -9.4 | -0.1 | 2.7 | 2.9 | -2.1
> COc1ccc(S(=O)(=O)N2CCCCC2)cc1NC(=O)c1cc(C)on1
  4387 | 5.1 | -19.5 | 0.6 | 10.8 | 0.9 | 4.4
> CCCCCNCc1cccn1C
  6142 | -2.2 | -5.5 | -5.2 | 6.5 | -2.8 | 13.6
> O=C(CN1CCCCCC1)Nc1ccc(Oc2ccccc2)cc1
  4502 | -10.9 | 31.6 | -6.0 | -14.6 | -1.5 | -2.8
> CCc1ccc(C2CC(=O)Nc3c2c(=O)nc2c(C)cccn32)cc1 (centres undefined)
  5212 | 11.6 | -40.4 | -2.0 | 5.2 | 8.4 | -15.9
> COC(=O)c1sccc1NC(=O)c1c(C)noc1C
  23485* | 0.1 | -107.2 | 10.6 | 5.4 | 7.1 | 0.8
> Cc1c(C(=O)Nc2ccccn2)oc2ccc(Br)cc12
  5622 | 4.4 | -151.2 | -2.7 | 2.0 | -0.5 | -11.2
> CN(C(=O)C1CCOC1)c1nnc(-c2ccccn2)s1 (centres undefined)
  ? | -0.4 | -22.0 | 2.0 | · | · | 27.5
> CCOC(=O)c1c(CN2CCCCC2)n(C)c2ccc(OC)c(S(=O)(=O)c3ccccc3)c12
  2460 | 0.7 | -15.8 | 7.2 | · | · | 4.4
> CC(C)(C)Cc1nnc(NC(=O)c2ccco2)s1
  4028 | 0.1 | -19.7 | 2.4 | 1.0 | -5.3 | -1.0
> CCCn1c(=N)c(S(=O)(=O)c2ccccc2)cc2c(=O)n3ccccc3nc21
  5698 | 0.5 | 11.0 | -4.9 | 4.5 | -14.7 | -2.3
> COC(=O)CC1(C(=O)OC)Oc2ccc(Br)cc2C(=O)N1c1cccc(Cl)c1Cl (centres undefined)
  5988 | 4.3 | -21.0 | 2.9 | 6.0 | 12.4 | -6.1
> CCOCCCNS(=O)(=O)c1ccc(NC(=O)C2CC(=O)N(c3ccc(C)cc3)C2)cc1 (centres undefined)
  4553 | 9.2 | -11.3 | 17.4 | -5.1 | 3.2 | 0.9
> CCOC(=O)c1cn(CC2CC2)c2cc(F)c(F)cc2c1=O
  2183 | 4.8 | -33.8 | 1.0 | 1.1 | 12.4 | 4.3
> Clc1cccc(Cl)c1COc1ccccc1CNn1cnnc1
  4390 | 8.6 | -16.5 | 12.7 | -8.5 | 18.2 | 4.0

Profiles, quoted from the list.
Record of O=S(=O)(c1ccc(Oc2ccc(-c3nnco3)cc2)nc1)N1CCC(Cc2ccccc2)CC1 : Autofluor counter = 9822; Sa RN4220 lethal = 2.2; PrP 5UTR inh = -13.0; Sa ugtP lethal = -4.8; Mtb hypoxia rep growth = 2.7; Mtb hypoxia rep = 3.5; BJeLR viability = -7.4
Record of CCOCCCNS(=O)(=O)c1ccc(NC(=O)C2CC(=O)N(c3ccc(C)cc3)C2)cc1 (centres undefined) : Autofluor counter = 4553; Sa RN4220 lethal = 9.2; PrP 5UTR inh = -11.3; Sa ugtP lethal = 17.4; Mtb hypoxia rep growth = -5.1; Mtb hypoxia rep = 3.2; BJeLR viability = 0.9

Remaining list, next part
Second line of a record: Autofluor counter | Sa RN4220 lethal | PrP 5UTR inh | Sa ugtP lethal | Mtb hypoxia rep growth | Mtb hypoxia rep | BJeLR viability
> COc1ccc(NC(=O)c2cccc(NC(=O)C(C)C)c2)c([N+](=O)[O-])c1
  2411 | 3.5 | -10.4 | 2.7 | 10.5 | 3.9 | 6.1
> CCOC(=O)c1cnn(-c2ccc(F)cc2)c1N
  3378 | -0.4 | -9.5 | 11.0 | 5.8 | -2.4 | -2.9
> Cc1cccc(Cc2ncc(C(F)(F)F)cc2Cl)c1
  2877 | 1.4 | -8.0 | 6.0 | -6.3 | 16.8 | -0.8
> CCOc1ccc(Cl)cc1S(=O)(=O)N1CCN(c2ccc(C)c(C)c2)CC1
  ? | 1.4 | -22.5 | -2.3 | 6.5 | 12.4 | 0.5
> C=Cn1c(N2CCOCC2)nc2c1c(=O)[nH]c(=O)n2C
  4913 | 1.3 | -10.5 | 8.9 | · | · | -1.7
> COc1cccc(C(=O)NCC(=O)NN=Cc2ccc(OC(=O)c3cccs3)c(OC)c2)c1
  · | 5.7 | · | -1.8 | 2.4 | 1.1 | ·
> FC(F)(F)c1ccccc1CN1CCC(Cc2ccccc2)CC1
  3896 | 8.4 | -22.1 | 48.4 | 1.0 | -4.0 | 11.7
